# Screening data as filed in PubChem.
# BJeLR lethal: MLPCN primary cell-based screen for lethality selective to Ras in HRASV12 cells. 300,000 compounds, 0.17% hits. inhibition, % (concentration not given with the values). BJeLR (HRASV12) viability, CellTiter-Glo ATP luminescence, 48 h; reference of the scale not given here. AID 1554, 2009;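 active = replicate mean above 50%; inconclusive = above 50% but judged a plate artefact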;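 note: 50 nL library stock added to about 25 µL; numbers are from one replicate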
# Autofluor counter: counter-screen for toxin protease inhibitors: compound fluorescence; fluorescence intensity (concentration not given with the values); AID 624483; compound autofluorescence counterscreen, microsphere flow cytometry; hits give high values; 360,000 compounds, 3.1% hits;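 active = at least 3 SD above the mean of all compounds, about 16000 in these data; inconclusive = too few beads counted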;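 note: 100 nL of 1 mM stock went into each well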
# Sa RN4220 lethal: growth inhibition of S. aureus RN4220, primary screen, OD600; 16 h; inhibition, % (no concentration beside the values); 330,000 compounds, 0.33% hits;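 active = z-score of -3 or lower and OD600 up to 0.18 on both plates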;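 note: plate controls were untreated cells for no effect and reference antibiotic for full effect; stock transfer was 100 nL into about 80 µL; one replicate is shown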
# ugtP null kill: growth inhibition of ugtP-null S. aureus, primary screen, RN4220 ugtP deletion, OD600. 16 h; some inactives read as strong as hits. growth inhibition, % (no concentration beside the values). 330,000 compounds, 0.54% hits. AID 1259309, 2017;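 active = z-score under -3 and OD600 up to 0.15 on both plates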;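 note: plate controls were untreated wells for no effect and antibiotic for full effect; wells of about 80 µL received 100 nL stock; the first replicate is given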
# Mtb hypoxia rep: PubChem AID 1159583; M. tuberculosis hypoxia-regulated fluorescent reporter, fluorescence; fluorescence inhibition, % (no concentration beside the values); 300,000 compounds, 0.1% hits;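 active = 35 to 45% if threefold the growth effect, above 45% if 1.5-fold the growth effect; inactive = the rest, general growth blockers included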;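 note: wells of about 50 µL received 100 nL stock; 0% = vehicle wells and 100% = reference inhibitor wells; whole bacteria with a GFP reporter of the hypoxia response; strong numbers were not always called active; many hits fall short of the cut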
# PrP 5UTR inh: inhibition of PrP 5' UTR reporter expression; inhibition, % (test concentration not listed); cell-based PrP 5' UTR mRNA reporter, plate reader; AID 488862, 2010; 340,000 compounds, 0.35% hits;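 active = every replicate at 50% or more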;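 note: 0 = median of the neutral control wells; tested in H4 reporter cells; numbers are from one replicate; inactives centre near -14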
# Mtb hypoxia rep growth: further read-out of Mtb hypoxia rep, marked with its call; growth inhibition, %; measured here: M. tuberculosis growth (absorbance);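 0% = vehicle and 100% = reference antibiotic; read after six days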
# * marks the source's active call; other numbers are inactive results; ? = inconclusive; . = no result given.
item	canonical_smiles	Mtb hypoxia rep	Sa RN4220 lethal	ugtP null kill	PrP 5UTR inh	Autofluor counter	BJeLR lethal	Mtb hypoxia rep growth
1	CCCCCCC(C)n1cc(C(C)=O)c(=O)n(C)c1=O (stereo not given)	4	1.5	7	-5	2919	1	9
2	Cc1cc(C(=O)NNC(=S)NCc2ccccc2)cs1	12	4.2	0	-12	2331	0	7
3	O=C(CSc1n[nH]c(-c2ccccn2)n1)Nc1ccccc1F	5	2.6	6	-13	2893	6	2
4	O=C1NC(=O)N(CCc2ccc(F)cc2)C(=O)/C1=C/c1ccco1	0	1.5	-5	-17	4818	8	0
5	CCC(=O)Nc1cccc(-c2nnc(SCC(=O)c3ccccc3)n2C)c1	2	5.1	9	-72	3082	-2	-3
6	CC1CCCC(C)N1C(=O)Cn1nnc(-c2ccc([N+](=O)[O-])cc2)n1 (stereo not given)	7	-0.1	-1	-31	3949	-1	-1
7	O=C(COc1ccc(Cl)cc1Cl)NC1CCSC1=O (stereo not given)	.	3.3	-3	-75	2722	1	.
8	Cc1ccc(NC(=O)CCN2CCCCC2)cc1	4	-0.1	2	4	3700	-24	9
9	COC(=O)c1cnc(N)s1	13	0.6	0	-28	3830	.	7
10	COc1ccccc1NS(=O)(=O)c1cc2c3c(c1)CCN3C(=O)CC2	-4	1.5	-3	-1	?	5	0
11	CCc1ccc(OCC(=O)Nc2ccc(N3CCN(C(=O)c4ccccc4)CC3)cc2)cc1	-1	0.5	4	-12	6070	8	-2
12	Cc1ccccc1CN1CCN(C2CCC2)CC1CCO (stereo not given)	4	2.4	8	-22	3621	-7	3
13	COc1ccc(C(=O)Nn2c(C3CCC3)nc3ccccc3c2=O)c(OC)c1	-1	1.8	8	-15	18494*	2	-4
14	O=C(O)CCC(=O)N1CCN(Cc2ccc3c(c2)OCO3)CC1	.	.	.	-13	2948	-16	.
15	O=C(/C=C/c1cccc([N+](=O)[O-])c1)OCC1CCCO1 (stereo not given)	0	3.5	5	-4	3715	-1	5
16	O=C(CC(c1ccccc1)c1cc(Br)ccc1O)NCc1ccco1 (stereo not given)	.	-9.0	-11	9	3076	-10	.
17	CC(C#N)(Cc1ccccc1)Nc1ccccc1 (stereo not given)	3	3.6	1	-26	6245	-3	8
18	Cc1cccc(NC(=S)N=Nc2c(O)n(CN3CCOCC3)c3ccccc23)c1C	2	10.0	-21	13	2344	.	1
19	CCOP(=O)(OCC)C(NS(=O)(=O)c1ccccc1)C(Cl)(Cl)Cl (stereo not given)	3	7.6	9	-1	3801	-12	-1
20	CC(C)(C)NC(=O)NC(=O)COC(=O)c1c(F)cccc1Cl	5	9.4	1	-29	4294	-5	5
21	CC(C(=O)O)c1ccc(C(=O)c2ccccc2)s1 (stereo not given)	1	3.2	-4	-17	5346	.	-2
22	CS(=O)(=O)N(CC(=O)N1CCN(c2ccccc2F)CC1)c1cccc(C(F)(F)F)c1	6	3.5	3	-30	8211	0	2
23	CCOc1cc(S(=O)(=O)NCc2ccco2)c(OCC)cc1-n1cnnn1	-4	0.9	-3	10	9879	-1	4
24	Cn1c(=O)c(C(=O)NCc2ccccc2Cl)c(O)c2ccccc21	8	0.9	12	-13	3000	-16	-3
25	O=C(CN1CCN(c2nc(-c3ccccc3)cs2)CC1)Nc1ccc2c(c1)OCO2	3	-4.3	13	-17	8452	-2	7
26	O=Cc1cccn1-c1cccnc1	4	2.8	4	-16	2240	2	5
27	CN1CCN(C(=O)c2cccc(S(=O)(=O)N3CCCCC3)c2)CC1	-1	1.5	4	-8	9481	-2	1
28	CCOC(=O)C1CCCN(Cc2cccc(Cl)c2)C1 (stereo not given)	-3	4.3	1	.	8228	-8	-4
29	CCOC(=O)C1=C(C)N(CCCC(=O)O)C(=O)NC1c1ccccc1OS(=O)(=O)c1ccc(C)cc1 (stereo not given)	14	3.1	-7	-16	3478	.	11
30	Cc1ccccc1NC(=O)c1ccccc1NC(=O)CCC(=O)O	1	2.2	2	8	2356	21	12

# Retrieved by structure from the entries so far:
item	canonical_smiles	Mtb hypoxia rep	Sa RN4220 lethal	ugtP null kill	PrP 5UTR inh	Autofluor counter	BJeLR lethal	Mtb hypoxia rep growth
14	O=C(O)CCC(=O)N1CCN(Cc2ccc3c(c2)OCO3)CC1	.	.	.	-13	2948	-16	.
9	COC(=O)c1cnc(N)s1	13	0.6	0	-28	3830	.	7

# (further entries)
item	canonical_smiles	Mtb hypoxia rep	Sa RN4220 lethal	ugtP null kill	PrP 5UTR inh	Autofluor counter	BJeLR lethal	Mtb hypoxia rep growth
31	COc1ccc(-n2c(=S)[nH]c3c(sc(=S)n3-c3ccccc3)c2=O)c(OC)c1	-13	-3.0	-1	-15	4778	4	-8
32	COc1ccccc1C(=O)NCc1ccc2c(c1)OCO2	-2	5.0	3	-5	12826	-7	-1
33	O=C1OCC2=C1C(c1ccc(F)cc1)Sc1ccccc1N2 (stereo not given)	-1	2.9	-12	-3	9883	-10	-1
34	Cc1ccnc(OC(C(=O)O)C(OCc2ccccc2)(c2ccc(F)cc2)c2ccc(F)cc2)n1 (stereo not given)	5	0.9	29	-2	3415	-8	7
35	CCCCOC(=O)c1nnc(-c2ccccc2)o1	8	0.9	7	-28	3875	3	-6
36	O=C(COc1cccnc1[N+](=O)[O-])NCc1ccc(F)cc1	12	3.3	-2	-17	3695	-8	4
37	Cc1ccc(C(O)c2nc3ccccc3n2C)cc1 (stereo not given)	9	4.0	6	-13	4123	10	10
38	C=CCn1ccc(=NC=C(C#N)C#N)c2ccccc21	.	.	.	-7	3449	12	.
39	COC(=O)[C@H](CC(C)C)NC(=O)CCc1nnc(COc2ccccc2)o1	11	7.2	15	1	4539	3	5
40	CC(C)(C)OC(=O)N1CCC[C@H]1C(=O)NN=Cc1ccc2ncccc2c1	18	2.4	11	.	.	.	7
41	COc1ccc(C(=O)OCC(=O)Nc2ccc3[nH]c(=O)[nH]c3c2)c(OC)c1OC	5	1.7	-2	-5	6002	7	2
42	CC(NC(=O)CN1C(=O)NC(c2ccccc2)(c2ccccc2)C1=O)c1cccs1 (stereo not given)	-2	6.7	11	6	4715	.	-6
43	COc1cc(C(c2c(C)[nH][nH]c2=O)c2c(C)[nH][nH]c2=O)cc(Cl)c1O	5	5.4	12	-27	3965	11	0
44	O=C(COC(=O)c1ccccc1Nc1ccccc1)c1ccccc1	-4	-2.0	55	-23	10965	8	5
45	CCOCCCNS(=O)(=O)c1ccc(OC)c(Cl)c1Cl	.	7.4	-1	-20	2977	-5	.
46	NC(=O)Cn1nnc(-c2ccc(NC(=O)c3ccc(F)cc3)cc2)n1	4	7.0	4	-39	2658	2	2
47	O=C1CCCC(O)=C1C(C#Cc1ccccc1)C1=C(O)CCCC1=O	5	3.3	14	5	17723*	2	-4
48	CCC(C(=O)Nc1nc(C)c(C)s1)c1ccccc1 (stereo not given)	1	-3.8	3	2	3755	-13	8
49	O=C(C1CCCN1S(=O)(=O)c1cccc2cccnc12)N1CCc2ccccc21 (stereo not given)	.	1.8	12	-31	5585	-9	.
50	O=C(Cc1ccc(F)cc1)Nc1ccc(S(=O)(=O)N2CCCCC2)cc1	-8	-4.0	-15	-5	3280	-1	3
51	O=C(N/N=C/c1ccccc1)c1ccc2c(c1)OCO2	.	.	.	-20	3406	0	.
52	C/C(=N\NC(=O)c1ccc(-c2ccccc2)cc1)c1cccc(N)c1	.	.	.	51	3206	3	.
53	Cc1cccc(OCCC(=O)NNC(=O)Cn2nc(C)cc2C)c1	1	7.5	4	3	.	.	-2
54	Cc1c(Cc2ccccc2)sc(NC(=O)c2ccco2)c1C(N)=O	7	5.0	1	-29	5792	-4	5
55	COc1ccc(CCNC(=O)c2nnc(CS(=O)(=O)c3ccccc3)o2)cc1OC	8	-5.0	2	-6	4490	3	1
56	O=C(C1CCCO1)N1CCN(c2ccc(F)cc2)CC1 (stereo not given)	3	2.2	2	-17	3952	-3	4
57	CC(=O)c1ccc(S(=O)(=O)Nc2ccc(C(=O)NCCCn3ccnc3)cc2)cc1	-5	0.0	2	-3	.	.	-4
58	c1ccc(-n2cc(CNCCc3cscn3)c(-c3ccc4c(c3)OCO4)n2)cc1	2	2.5	0	-13	2725	5	-4
59	Cc1ccc(NC(=O)COc2ccc(Cl)cc2Cl)cc1S(=O)(=O)N1CCOCC1	-2	3.0	-17	5	4410	.	-7
60	CCN1CCCC1CNC(=O)c1cc(OC)c(OC)c(OC)c1 (stereo not given)	.	3.0	4	-13	2510	1	.

# Sorted by count of non-hydrogen atoms (high to low): part of the list above
item	canonical_smiles	Mtb hypoxia rep	Sa RN4220 lethal	ugtP null kill	PrP 5UTR inh	Autofluor counter	BJeLR lethal	Mtb hypoxia rep growth
53	Cc1cccc(OCCC(=O)NNC(=O)Cn2nc(C)cc2C)c1	1	7.5	4	3	.	.	-2
36	O=C(COc1cccnc1[N+](=O)[O-])NCc1ccc(F)cc1	12	3.3	-2	-17	3695	-8	4
45	CCOCCCNS(=O)(=O)c1ccc(OC)c(Cl)c1Cl	.	7.4	-1	-20	2977	-5	.

# Other compounds
item	canonical_smiles	Mtb hypoxia rep	Sa RN4220 lethal	ugtP null kill	PrP 5UTR inh	Autofluor counter	BJeLR lethal	Mtb hypoxia rep growth
61	COc1ccc(Cl)cc1NC(=O)Nc1cccc([N+](=O)[O-])c1C	-6	-7.1	0	-21	2972	1	7
62	COC(=O)C1=C(c2ccc(OC(F)(F)F)cc2)CC2CCC1N2C(=O)NCc1cc(C)oc1C(F)(F)F (stereo not given)	9	-13	1	.	.	.	3
63	Cc1cccc(-n2c(O)c(C=Nc3ccccc3N)c(=O)[nH]c2=O)c1	-11	3.6	0	-25	6071	9	2
64	CC[C@@]1(C(=O)OC)N[C@H](CN(C)S(=O)(=O)c2ccccc2)[C@@H]2C(=O)N(C)C(=O)[C@@H]21	5	0.5	4	-7	3404	.	12
65	O=C(CN(C(=O)c1csnn1)c1ccc(Cl)cc1)NCCc1ccccc1	11	1.3	-6	-22	5759	1	2
66	C=CCCN(C(CC(C)C)C(=O)OC)S(=O)(=O)c1ccccc1Br (stereo not given)	22	9.1	10	-16	3130	-5	12
67	O=C(Nc1c2c(nn1-c1cccc(Cl)c1)CS(=O)C2)c1ccc2c(c1)OCO2 (stereo not given)	13	4.3	4	-13	5370	0	11
68	CC(=O)NC(CC(=O)Oc1ccc(C)cc1Br)c1ccccc1 (stereo not given)	-1	3.4	2	-14	6147	-3	-2
69	Cc1nn(-c2ccc(Cl)c(Cl)c2)c(C)c1C(=O)O	3	-0.9	-2	-10	4690	3	5
70	COc1cccc(-c2nn(-c3ccccc3)cc2C(=O)NCC(=O)O)c1	.	1.2	14	-19	2295	-5	.
71	O=C(Cc1cn(Cc2cccc(Cl)c2)c2ccccc12)N1CCCC1	-2	-1.8	1	-30	11143	-1	-3
72	Cc1cc(C)nc(-n2nc(C)cc2NC(=O)c2cccc(S(=O)(=O)N3CCOCC3)c2)n1	6	2.2	7	11	4138	.	6
73	COc1ccc(OC)c([N+](=O)[O-])c1C(N)=O	0	11	4	-11	4650	10	13
74	CCOC(=O)c1c(C)[nH]c(C(=O)Cn2c(=O)oc3ccccc32)c1C	.	0.5	-6	-30	4804	-12	.
75	Cc1ccc(C(C(=O)NCc2ccc(F)cc2)N(C(=O)c2csnn2)C2CC2)cc1 (stereo not given)	-3	1.4	13	-13	3681	-9	2
76	CCNC(=S)NNC(=O)Nc1ccccc1	0	-1.1	0	-108	23334*	-5	3
77	Cc1ccc2c(c1)N(CCC(=O)NCCCOC(C)C)C(=O)C(C)O2 (stereo not given)	7	-0.6	-6	-22	5843	-3	4
78	COCCCNC(=O)Cn1nnc(-c2ccc(NC(=O)c3cccnc3)cc2)n1	5	-0.6	10	.	.	-8	2
79	Cc1ccc(C)c2c1cc(C)c1nnc(SCC(=O)c3cccs3)n12	17	2.4	1	-86	2446	8	3
80	COc1ccc(-c2ccc(-c3nnc(Cc4ccc(OC)c(OC)c4)o3)cc2)cc1	-3	7.6	-5	-20	22185*	0	1
81	CS(=O)(=O)N1CCC(C(=O)Nc2cc(C(F)(F)F)ccc2Cl)CC1	11	7.5	6	-4	10906	0	2
82	COc1ccc(N2CCN(C(=O)CCC(=O)N3CCOc4ccc(Cl)cc43)CC2)cc1	-1	6.3	1	-9	4557	-10	-4
83	C#CCOC(=O)C[N+](C)(C)CC#Cc1ccccc1	2	-0.1	9	-29	3220	3	-2
84	COc1ccc(OCC(=O)Nc2cc(-c3nn4c(C)nnc4s3)ccc2C)cc1	.	0.5	-3	-4	4138	-10	.
